Screening data (PubChem BioAssay)
FGF22 binding – shifts melting point of recombinant human FGF22; Q9HCT0; recombinant FGF22 thermal shift, SYPRO orange fluorescence; percent of sucrose octasulfate shift, DMSO zero; calls only at 9.99 µM; 340,000 tested, 1.5% active; AID 651658;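 active means melting point raised past a set limit in the mean and every replicate; inconclusive means no clear call; three in four hits are not shown here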
Vif TR-FRET – HIV-1 Vif–A3G interaction blockers – biochemical, TR-FRET, GST-Vif 1-94, biotin-A3G peptide, dose response retest, primary screen (AID 1117319); TR-FRET GST-Vif / biotin-A3G peptide binding; higher % means a stronger effect; test concentration not given here; strong numbers were not always called active; inhibition, %; hits with a dose series show IC50 in µM; 260,000 tested, 0.57% active;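 active means above the screen mean plus three standard deviations and confirmed in dose response; inconclusive means results disagree or hit not tested in dose response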;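 further: Vif residues 1-94 fused to GST binding biotinylated APOBEC3G peptide 110-148; 0% = full assay without inhibitor and 100% = GST in place of GST-Vif; retest series ran down from 100 µM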
UCH37 DUB inh – blocks the human deubiquitinase UCH37 | AID 588478 | 330,000 tested, 0.33% active | purified proteasome/UCH37, Ub-AMC cleavage fluorescence | inhibition, % (test concentration not listed) | Q9Y5K5;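 active means mean of two replicates above 20%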;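 further: 0% = compound-free wells with enzyme and 100% = wells lacking proteasome; stock transfer was 100 nL into about 20 µL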
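Assay system: Proteasome-bound UCH37. Buffer or medium: pH 7.4 Tris-HCl (50 mM) with ovalbumin, ATP-MgCl2, DTT. Incubation: 30 min preincubation with enzyme, 25 min cleavage at room temperature. Measured by: fluorescence, ex 355 nm, em 460 nm. Read-out basis: percent inhibition. Control set: wells without proteasome as full block, compound-free enzyme plus substrate as uninhibited.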
Ecoli growth – blocks Escherichia coli growth | OD600, 23 h; active compounds read low | OD600 absorbance (concentration not given with the values) | 330,000 tested, 0.21% active | AID 1053175;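 active means OD600 absorbance below the run mean of sample wells minus 3.6 SD, in any replicate, cut at about 0.56 in these data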;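 further: stock transfer was 300 nL into about 60 µL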
MLL AF4-AF9 inh – inhibitors of human MLL-AF4/AF9 interaction. AID 651704. inhibition, % at 10 µM. 350,000 tested, 0.47% active. AlphaScreen, biotin-AF4 peptide binding to FLAG-AF9;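 active means every replicate reaching a set inhibition limit, whatever the replicate mean, cut at about 25% in these data; inconclusive means mean inhibition reaches that limit but some replicates miss it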;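 further: 0% = plate neutral control median and 100% = total signal loss; the record names both 10 and 1 µM as test concentration; the first replicate is given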
Target sequence (P42568 whole entry, looked up): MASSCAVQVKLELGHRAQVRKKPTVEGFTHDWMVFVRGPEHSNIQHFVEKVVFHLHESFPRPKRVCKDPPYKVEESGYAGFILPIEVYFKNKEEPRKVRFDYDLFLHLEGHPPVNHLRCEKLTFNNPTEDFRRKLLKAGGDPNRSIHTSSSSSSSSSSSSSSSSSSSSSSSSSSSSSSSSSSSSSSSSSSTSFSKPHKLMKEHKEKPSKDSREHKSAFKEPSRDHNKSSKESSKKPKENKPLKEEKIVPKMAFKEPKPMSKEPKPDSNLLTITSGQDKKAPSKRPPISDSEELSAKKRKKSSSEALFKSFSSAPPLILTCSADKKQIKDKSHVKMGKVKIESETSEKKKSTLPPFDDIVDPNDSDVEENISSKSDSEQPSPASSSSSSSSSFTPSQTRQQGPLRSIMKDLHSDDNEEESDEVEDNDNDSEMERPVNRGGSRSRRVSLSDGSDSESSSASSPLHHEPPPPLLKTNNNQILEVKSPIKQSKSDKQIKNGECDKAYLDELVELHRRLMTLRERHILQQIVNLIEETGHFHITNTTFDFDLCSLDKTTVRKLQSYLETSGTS
RanGTP-Impb inh – disruptors of Ran-importin-beta complex formation – biochemical, FRET, CFP-Ran, YFP-importin-beta, homogeneous, primary screen; cell-free CFP-Ran/YFP-importin-beta FRET ratio; inhibition, % (no concentration beside the values); 300,000 tested, 1.1% active; AID 2216;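 active means most replicates above 15%; inconclusive means exactly half above 15%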;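 further: 0% = DMSO wells and 100% = Ran loaded with GDP instead of GTP; wells of about 40 µL received 100 nL stock; the first replicate is given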
HNF4A DNA FP – change in binding of human HNF4 alpha to DNA | P41235 | HNF4a-FITC DNA binding, fluorescence polarization, 1 h | activity change, % at 10 µM | 360,000 tested, 0.3% active | AID 1224865; in the data active means activity change above about 30%, passing the limit was not always enough;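 further: controls were the assay level and a saturating level of protein; the project sought stronger binding though the title names inhibitors; some compounds called inactive have numbers as strong as hits; positive values seem to mean higher polarization but the record does not say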
Target sequence (P41235 whole entry, looked up): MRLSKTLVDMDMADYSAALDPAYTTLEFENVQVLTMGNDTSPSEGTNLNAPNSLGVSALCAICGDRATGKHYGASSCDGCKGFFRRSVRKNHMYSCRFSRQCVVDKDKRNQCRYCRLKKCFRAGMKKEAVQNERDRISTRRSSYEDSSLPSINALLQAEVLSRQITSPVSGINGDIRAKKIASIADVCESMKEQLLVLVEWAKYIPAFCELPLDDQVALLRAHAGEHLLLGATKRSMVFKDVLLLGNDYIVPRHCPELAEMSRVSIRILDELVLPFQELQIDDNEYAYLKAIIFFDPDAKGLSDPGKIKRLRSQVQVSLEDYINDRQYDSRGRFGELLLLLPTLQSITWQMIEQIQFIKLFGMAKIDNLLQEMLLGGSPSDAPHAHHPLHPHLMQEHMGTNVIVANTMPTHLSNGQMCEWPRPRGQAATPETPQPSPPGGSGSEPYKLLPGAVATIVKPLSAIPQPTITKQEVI
An asterisk follows results filed as active; i = inactive; ? = inconclusive; . = no result given. A portion of the library. The share of hits here may be higher or lower than overall.

SMILES	FGF22 binding	Vif TR-FRET	UCH37 DUB inh	Ecoli growth	MLL AF4-AF9 inh	RanGTP-Impb inh	HNF4A DNA FP
COc1cc(/C=C(/C#N)C(=O)Nc2ccc(Cl)cc2)ccc1Oc1nc(Cl)ncc1F	i	1%	5.0	0.75	2.0	-1.5	-1.0
COc1ccc(-n2c(SCC(=O)NCc3ccco3)nc3sc4c(c3c2=O)CCN(C)C4)cc1	i	.	2.9	0.69	-6.8	9.8	-15
CCN(CC(=O)Nc1c(F)cccc1F)C(=O)c1cccc(S(=O)(=O)NCc2ccccc2)c1	i	2%	2.3	0.69	-0.7	4.2	0.9
O=[N+]([O-])c1ccccc1Oc1ncccc1[N+](=O)[O-]	.	1%	.	.	0.6	-3.9	-2.6
CC(=O)Nc1ccc2c(c1)-c1ccc(F)cc1C2	i	.	.	.	-1.4	.	-1.0
CCOC(=O)N1CCC(NC(=O)Cn2ncc3c4ccccc4n(C)c3c2=O)CC1	.	7%	0.6	0.72	.	?	-0.1
Cc1cccc(C)c1NC(=O)C[n+]1cc(-c2ccccc2)n2c1CCC2	i	-4%	1.9	0.64	-0.8	4.3	-1.6
O=C(NC1CCCCC1)C1CCN(C(=O)c2ccc(-c3ccccc3)cc2)CC1	i	.	1.6	0.66	-2.4	1.5	-2.2
COc1c(C(=O)Nc2ccc(Br)cn2)ccc2ccccc12	i	-31%	-11	0.68	-0.7	-4.5	-3.5
CC[C@]12c3[nH]c4ccc(Cl)cc4c3CCN1C(=O)[C@@H](CC(=O)NCCc1ccccn1)C[C@@H]2C(=O)N1CCN(C(=O)C2CC2)CC1	i	.	3.9	0.68	-1.1	.	0.7

Single values from the results shown.
Entry of COc1cc(/C=C(/C#N)C(=O)Nc2ccc(Cl)cc2)ccc1Oc1nc(Cl)ncc1F in UCH37 DUB inh: 5.0
Entry of CCOC(=O)N1CCC(NC(=O)Cn2ncc3c4ccccc4n(C)c3c2=O)CC1 in Vif TR-FRET: 7%
Entry of O=[N+]([O-])c1ccccc1Oc1ncccc1[N+](=O)[O-] in Vif TR-FRET: 1%

New compounds follow
SMILES	FGF22 binding	Vif TR-FRET	UCH37 DUB inh	Ecoli growth	MLL AF4-AF9 inh	RanGTP-Impb inh	HNF4A DNA FP
O=C(N/N=C/c1sc(=O)[nH]c1-[n+]1ccc2ccccc2c1)c1ccccc1[O-]	i	.	.	.	0.4	24*	-0.6
CN(CC(=O)Nc1ccccc1Cl)C(=O)COC(=O)c1ccc(-c2ccc(O)cc2)cc1	i	.	-4.2	0.7	-1.3	.	-3.1
O=C1C(=O)N(CCCO)C(c2ccccc2)/C1=C(\O)c1ccc(Br)cc1 (stereo not drawn)	i	.	5.5	0.71	-1.0	0.6	-1.8
COC(=O)CSc1snnc1-c1ccc(Cl)c(Cl)c1	.	-5%	0.0	0.67	.	5.0	0.0
O=C(O)/C=C/c1ccc(S(=O)(=O)Nc2ccc(C(=O)NCC(=O)O)cc2)cc1	i	18%	5.5	0.71	2.3	0.3	-6.6
CC(C)OC(=O)CSc1nc(N)c(C#N)c(-c2ccco2)c1C#N	.	19%	-9.9	0.8	.	2.9	21
O=C(Nc1cccc(S(=O)(=O)N2CCCCC2)c1)C1CCN(C(=O)c2ccc(Cl)cc2)CC1	i	-5%	4.7	0.66	-0.5	.	1.8
CN1CCN(C(=O)CSc2nc(-c3cccs3)ccc2C#N)CC1	.	74%	-126	0.71	.	-1.2	8.4
C/C(CC(=O)Nc1cccc(Cl)c1Cl)=N\NC(=O)c1ccccc1N	i	23%	.	.	0.5	-1.3	1.5
CN(C)S(=O)(=O)c1ccc(NC(=O)C2CCCN(C(=O)c3ccc(Cl)cc3)C2)cc1 (stereo not drawn)	.	?	2.4	0.71	.	1.0	2.9
NC(=O)c1sc2nc(-c3ccccc3)c3c(c2c1N)CCCC3	i	.	-135	0.64	-23	3.0	6.2
COc1ccc(CCNC(=O)c2ccco2)cc1	.	2%	4.7	0.69	.	.	-0.3
O=C(CCN1C(=O)C2C3C=CC(C3)C2C1=O)N1CCN(c2ccccc2F)CC1 (stereo not drawn)	.	16%	3.5	0.69	.	4.2	-2.4
O=C(CCc1nnc(C2(c3ccc(Cl)cc3)CCC2)o1)N1CCCC(O)C1 (stereo not drawn)	i	.	1.9	0.71	-2.4	2.5	-1.6
CC(=O)N1CCN(Cc2cc(=O)oc3ccccc23)CC1	i	.	.	.	-0.2	.	0.7
CC(C)C(OC(=O)c1cc2occc2n1C)C(=O)NCc1ccc2c(c1)OCO2 (stereo not drawn)	i	17%	1.1	0.73	-12	2.7	1.2
CCOC(=O)[C@@H]1[C@H]2COc3cc(OC)ccc3[C@@H]2N2C(=O)N(c3ccc(C(F)(F)F)cc3)C(=O)[C@@]12C	i	.	3.9	.	3.5	?	-3.8
CC(C)c1ccc(N(CC(=O)NCc2ccc(F)cc2)C(=O)c2snc(C(N)=O)c2N)cc1	i	.	-0.9	0.6	-8.0	?	9.3
Cc1ccc(SCC(=O)OCn2nnc3ccccc3c2=O)cc1C	i	.	0.1	0.73	-1.3	7.5	-0.9
CCCCOP(=O)(OCCCC)C(O)c1ccc(N(C)C)cc1 (stereo not drawn)	i	8%	5.1	0.69	0.6	-4.5	-2.8
COc1ccc(C(C(=O)NC2CCCCC2)N(C(=O)c2snc(C(N)=O)c2N)c2ccc(OC)cc2OC)cc1 (stereo not drawn)	i	.	-23	0.68	1.1	?	-0.5
O=S(=O)(c1ccc(Cl)cc1)N1CCC(n2cccc2)CC1	i	-3%	2.4	0.67	5.9	2.8	2.9
CC1=NN=C(c2ccccc2)C(c2c[nH]c3ccccc23)N1O (stereo not drawn)	.	-10%	4.0	0.7	.	-0.4	-0.1
O=C(NCC1CC1)c1ccc2nc([C@@H]3O[C@H](CO)[C@H](O)[C@H](O)[C@H]3O)[nH]c2c1	i	.	.	.	0.1	.	0.4
C#CCCc1cocc1/C=[N+](\[O-])c1ccc(C(=O)OCC)cc1	i	.	-0.6	.	0.3	.	9.3
C/C(CC(=O)Nc1ccc(Cl)cc1Cl)=N\NC(=O)c1ccco1	.	11%	.	.	.	2.8	5.5
O=C(Cc1cccc(NC(=O)C2CCCN(C(=O)CCc3ccccc3)C2)c1)Nc1ccc(C(=O)N2CCCCC2)cc1 (stereo not drawn)	i	8%	1.9	0.69	-1.6	.	6.6
Cc1[nH]c2ccc(S(N)(=O)=O)cc2c1C	.	14%	2.4	0.67	.	0.7	2.3
Cc1ccc(Oc2nc3ccccn3c(=O)c2/C=C(\C#N)C(=O)Nc2c(C)n(C)n(-c3ccccc3)c2=O)cc1	.	.	-12	0.67	.	4.1	-1.1
CC1CN(C(=O)N2c3ccccc3Sc3ccccc32)C(C)CC1=O (stereo not drawn)	.	-2%	5.4	0.67	.	5.2	1.9
O=C(CSc1ccc(-c2nc3ccccc3[nH]2)cn1)Nc1ccc2c(c1)OCCO2	.	4%	-25	0.69	.	-3.6	3.9
c1cc2c(cnc3cscc32)s1	i	.	-28	0.69	-0.5	-2.6	-9.3
Nc1ccccc1Nc1c(F)c(F)nc(F)c1Cl	i	-14%	1.8	0.67	15	?	2.5
Cn1c2ccccc2c2cnn(CC(=O)Nc3ccc(F)cc3F)c(=O)c21	i	-2%	-9.1	0.69	-5.9	4.1	-0.7
Cc1ccnc(NC(=O)C2CCN(S(=O)(=O)c3cccc4nsnc34)CC2)c1	.	2%	3.9	0.71	.	3.5	-1.1
CN(CC(=O)Nc1ccc(Cl)c(C(F)(F)F)c1)C(=O)Cc1c[nH]c2ccccc12	i	-4%	1.8	0.68	-6.9	3.4	1.9
O=C(CCNC(=O)c1ccccc1Cl)Nc1cccc(C(F)(F)F)c1	i	.	3.7	0.72	-0.5	-3.1	4.5
O=C(OCC(=O)N(CCc1ccccc1)Cc1ccccc1)c1cccc(O)c1	i	-5%	3.3	0.73	-2.4	1.2	-0.6
CCN(CC)CCNC(=O)c1ccc(NC(=O)C2CCN(S(=O)(=O)c3ccc4c(c3)OCCO4)CC2)cc1	i	1%	2.5	0.69	3.1	-1.6	3.8
CCN(CC)CCNC(=O)c1ccc(NC(=O)c2ccccc2-c2ccc(C(F)(F)F)cc2)cc1	i	.	0.2	0.69	6.4	0.1	0.0
COCCCNC(=O)CSC1=Nc2ccccc2C2=NC(Cc3c[nH]c4ccccc34)C(=O)N12 (stereo not drawn)	.	?	5.2	0.67	.	-2.3	1.2
COc1ccccc1N1CCN(C(=O)c2ccc3[nH]c4c(c3c2)CC(C)CC4)CC1 (stereo not drawn)	i	-5%	3.8	0.72	16	4.4	5.2
CN1/C(=C\C(=O)CSc2nnc(N)s2)C(C)(C)c2ccccc21	i	2%	7.9	0.7	3.0	-0.9	-0.2
COc1cc(C(=O)N/C(=C\c2cn(C)c3ccccc23)C(=O)N2CCOCC2)cc(OC)c1OC	i	.	8.5	0.62	-7.3	0.9	-0.1
CCC(Cc1ccccc1)NC(=O)/C=C/c1ccco1 (stereo not drawn)	i	.	3.2	0.67	-0.3	1.4	2.7
Cc1ccc(N2C(=O)CC(C3CCCO3)C2=O)cc1 (stereo not drawn)	.	-4%	0.0	0.66	.	-0.4	0.6
CCCCNS(=O)(=O)CCNCCc1ccccc1	i	.	0.7	0.67	-1.1	.	-0.7
COc1ccc(CNC(=O)CCc2nc3cc(S(=O)(=O)N(C)C)ccc3n2C)cc1OC	i	?	-1.8	0.7	-6.6	1.2	1.2
COc1ccc(-c2ccc(-c3noc(C(C)C)n3)c(OC)n2)cc1	.	-8%	-13	0.68	.	?	3.2
Cc1ccccc1C(=O)c1cccn1CC(=O)O	.	30%	0.5	0.7	.	1.2	-1.2
Following part.
SMILES	FGF22 binding	Vif TR-FRET	UCH37 DUB inh	Ecoli growth	MLL AF4-AF9 inh	RanGTP-Impb inh	HNF4A DNA FP
O=C(NCCO)c1cccc(Nc2nc(-c3ccccc3)c3cc(Cl)ccc3n2)c1	.	-9%	-15	0.78	.	-1.1	0.5
COC(=O)C1CCN(S(=O)(=O)c2ccc(OC)cc2)CC1	.	1%	4.5	0.75	.	1.1	-0.3
COc1ccc(N2CCCCn3c2nc2c3c(=O)n(C)c(=O)n2C)cc1	.	?	1.7	0.7	.	0.0	1.4
COc1ccc(CCC(=O)OCC(=O)Nc2ccc(C)c(S(=O)(=O)N(C)C)c2)cc1	.	0%	4.6	0.69	.	-2.1	-1.1
CC(=O)Nc1cnc(-c2ccccc2O)cn1	i	.	.	.	-2.8	.	2.0
CCn1ncc(C2=NOC(C(=O)Nc3cnn(C45CC6CC(CC(C6)C4)C5)c3)C2)c1C (stereo not drawn)	i	-5%	4.1	0.73	8.8	2.4	-1.8
CCOC(=O)c1c(CC(C)C)csc1NC(=O)c1ccccc1C(=O)O	i	8%	1.4	0.69	-0.3	-0.9	-2.3
COc1cc(N/C=C2\CC(=O)NC(C)=C2C#N)cc(OC)c1OC	i	-1%	3.5	.	-1.1	2.2	-13
COc1ccc(/C=N/n2cnc3c([nH]c4ccc(F)cc43)c2=O)cc1CSc1ccccn1	i	-4%	.	.	-10	4.9	2.7
COC(=O)c1ccc(CN2C(=O)NC3(CCCc4ccccc43)C2=O)o1 (stereo not drawn)	.	-2%	1.2	0.75	.	0.7	-0.7
O=C(NCc1ccc(Cl)cc1)c1cccc(NC(=O)c2ccccc2)c1	i	.	3.0	0.63	-7.4	3.2	2.8
COC(=O)C1(C)Nc2ccccc2C(=O)N1c1ccccc1C (stereo not drawn)	i	6%	-166	0.73	-0.9	5.5	1.7
O=C(Nc1ccc(C(=O)N2CCCCC2)cc1)C1CC1	i	.	.	.	-0.8	.	-4.1
